TRPML1 blocker: qHTS for Inhibitors of the Human Mucolipin Transient Receptor Potential 1 (TRPML1); hit rate 0.02% among 390,000; activity change, negative = inhibition, % (test concentration not listed); TRPML1-inducible cells, Ca2+ dye fluorescence, FDSS; stronger effect = lower value; inhibition of EC80 agonist-evoked calcium signal; Mucolipin-1 (Homo sapiens), Q9GZU1; AID 624415, 2012; in the data active means activity change below about -50%; inconclusive means about -30% to -50%; inactive means above about -30%;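 also: stimulus is agonist 54-4 at its EC80 concentration; % is scaled to controls: 0 for no effect and ±100 for the full control effect; compound concentration not given in the record; the text of the record puts the active cut at -80%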
Target sequence (Q9GZU1 whole entry, looked up): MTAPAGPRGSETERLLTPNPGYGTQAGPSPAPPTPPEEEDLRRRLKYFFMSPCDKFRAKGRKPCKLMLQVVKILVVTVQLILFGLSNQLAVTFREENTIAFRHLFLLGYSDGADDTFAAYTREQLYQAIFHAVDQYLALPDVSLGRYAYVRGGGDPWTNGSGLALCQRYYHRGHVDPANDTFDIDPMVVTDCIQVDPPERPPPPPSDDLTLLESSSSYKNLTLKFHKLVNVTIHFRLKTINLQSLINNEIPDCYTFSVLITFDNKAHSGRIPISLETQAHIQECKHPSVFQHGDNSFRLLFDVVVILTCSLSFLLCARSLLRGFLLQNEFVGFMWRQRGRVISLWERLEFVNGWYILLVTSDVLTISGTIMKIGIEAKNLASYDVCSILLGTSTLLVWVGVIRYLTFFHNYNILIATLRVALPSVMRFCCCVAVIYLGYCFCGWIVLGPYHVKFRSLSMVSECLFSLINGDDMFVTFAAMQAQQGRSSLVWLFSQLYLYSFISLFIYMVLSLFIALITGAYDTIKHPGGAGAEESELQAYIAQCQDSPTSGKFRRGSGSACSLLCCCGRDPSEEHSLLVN
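Tet-induced TRPML1-DL cells loaded with Ca8 no-wash calcium dye were read kinetically on FDSS. Compound addition was followed by EC80 agonist 54-4 (4 uM final); inhibition was read over 110 s.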
gsp agonist: qHTS for Agonist of gsp, the Etiologic Mutation Responsible for Fibrous Dysplasia/McCune-Albright Syndrome: qHTS. gsp mutant cells, cAMP HTRF, 30 min; control for the full effect not named in the record. Potency, µM (doses to about 76.9 µM), without a hit: at the highest dose activation (cAMP increase), actives largely listed as activators. hit rate 0.13% among 340,000; active = well fitted activation curve with a large enough effect; inconclusive = small, poorly fitted or top-dose-only effect, or another doubt; inactive = no such curve, though single readings can be large or run the other way; cell line not stated here;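 also: phosphodiesterase inhibitor Ro 20-1724 added with compounds to block cAMP breakdown; potency is read from the fitted curve at half-maximal effect; nearly all actives have a fitted effect of over 60% in size; about a fifth of the inactives were tested at one dose only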
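Cells in DMEM/10% FBS with G418 were pretreated with compounds in DMSO plus […] (300 uM stock) for 30 min at 37C. cAMP was measured by HTRF (cAMP-d2 plus anti-cAMP antibody-K) after 30 min at room temperature.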
ClpP mod: qHTS Assay for Activators of ClpP; ATP-dependent Clp protease proteolytic subunit (Bacillus subtilis (strain 168)), P80244; Potency, µM (doses to about 57.5 µM), without a hit: top-dose activity change, negative = active; purified B. subtilis ClpP, FRET peptide cleavage, 20 min; hit rate 1.9% among 340,000; active = well fitted falling curve with a large enough effect; inconclusive = small, poorly fitted or top-dose-only effect; inactive = no such curve, though single readings can be large or run the other way; also: potency is read from the fitted curve at half-maximal effect; the source files actives as falling curves though it sought activators and does not explain the sign; nearly all actives have a fitted effect of over 65% in size; many hits overshoot -100%
Target sequence (P80244 whole entry, looked up): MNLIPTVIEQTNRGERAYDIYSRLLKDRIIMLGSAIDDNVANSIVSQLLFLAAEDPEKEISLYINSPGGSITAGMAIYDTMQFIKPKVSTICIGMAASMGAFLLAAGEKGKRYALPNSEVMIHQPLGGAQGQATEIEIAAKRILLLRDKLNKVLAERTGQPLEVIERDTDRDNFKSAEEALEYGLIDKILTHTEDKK
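Buffer: 100 mM Tris/HCl pH8, 100 mM KCl, 0.05% low protease BSA, 2.5% glycerol, 0.01% Tween-20. ClpP 10 microg/mL final; 20 min RT; delta FRET normalized to ADEP and DMSO controls.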
TRPML1 ag: qHTS for Agonists of the Human Mucolipin Transient Receptor Potential 1 (TRPML1); Mucolipin-1 (Homo sapiens), Q9GZU1; TRPML1-expressing cells, Ca2+ dye fluorescence, FDSS; host cell line not named in the record; reference of the full effect not given here; activation, % (no concentration beside the values); hit rate 0.12% among 410,000; AID 624414, 2012; in the data active = activation above about 50%; inconclusive = about 30% to 50%; inactive = below about 30%; also: 0% is about no effect; the text of the record puts the active cut at 80%
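Tetracycline-induced TRPML1-DL cells are seeded and incubated overnight before loading with a no-wash Ca2+ dye and quencher. Agonist activity is taken from the 110 s fluorescence read following compound pin-transfer on an FDSS, before EC80 54-4 challenge.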
Menin-MLL FL inh: qHTS Assay for Inhibitors Targeting the Menin-MLL Interaction in MLL Related Leukemias: Competition With Fluorescein Labeled MLL-derived Peptide | AID 1766, 2009 | 290,000 tested, under 10 active | Fluorescence polarization, fluorescein-MLL peptide displacement from menin | FP activity change, % at 61.4 µM; inconclusive = falling polarisation curve, or a change in total fluorescence; inactive = total fluorescence flat and polarisation flat or rising; no compound was filed as active; the % refers to the polarisation; negative = inhibition;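 also: % of control where 0% means no effect; inhibitors lower the polarisation; unlabelled MLL peptide was the positive control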
gsp antagonist: qHTS for Antagonists of gsp, the Etiologic Mutation Responsible for Fibrous Dysplasia/McCune-Albright Syndrome: qHTS | gsp-mutant cells, cAMP HTRF, 30 min; control for the full effect not named in the record | Potency, µM (series often up to 76.9 µM), for the others: at the highest dose activity change, negative = inhibition, actives largely listed as inhibitors | hit rate 0.4% among 340,000 | AID 624288, 2012; active = falling curve of any shape with a large fitted effect; inconclusive = falling curve, mostly with a smaller effect; inactive = flat or rising curve; cell line not stated here;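 also: intracellular cAMP measured with PDE inhibitor Ro 20-1724 present during compound exposure; potency is read from the fitted curve at half-maximal effect; % is scaled to controls: 0 for no effect and ±100 for the full control effect; nearly all actives have a fitted effect of over 65% in size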
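HTRF cAMP measurement after 30 min RT detection following 30 min, 37C compound treatment alongside […] (added as 300 uM solution) in G418-selected cells seeded at 2000/well and grown 16–24 h.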
Starred values were filed as active, the others as inactive; ? = inconclusive; nt = not tested or not shown; [ ] = remark or other dose.

Values run as follows: TRPML1 blocker	gsp agonist	ClpP mod	TRPML1 ag	Menin-MLL FL inh	gsp antagonist
- CCOC1C(=O)NC(=O)N1Cc1ccccc1 (configuration not stated)
→ -2	4%	nt	0.3	-1.0	3%
- c1cc2cn[nH]c2cc1NC1CCCCCC1
→ 1	-23%	?	0.4	?	-7%
- COc1ccccc1Cc1nc(-c2cccnc2)no1
→ -9	4%	1.2%	-1.0	7.3	-2%
- CC(C)(C)NC(=O)CON=C1c2ccccc2-c2ccccc21
→ 5	-3%	0.4%	1.6	5.2	-38%
- COc1ccc(C(=O)CN2CCN(S(=O)(=O)c3cccc([N+](=O)[O-])c3)CC2)cc1
→ -5	-10%[15.4 µM]	nt	1.3	0.1	-15%
- Cc1ccc(NC(=O)CSc2nnc3c(n2)[nH]c2ccccc23)cc1
→ 10	?	nt	0.3	-0.1	2%
- Cc1ccc(C(=O)Nc2cc(=O)n(C)c(=O)n2C)cc1C
→ -5	-26%	1.2%	-0.2	3.6	-2%
- O=C(CSc1nnc2c(Cl)cc(Cl)cn12)N1CCOCC1
→ -14	-3%	5.2%	0.9	1.2	6%
- COc1ccccc1CC1S/C(=N/N=C/c2ccco2)NC1=O (configuration not stated)
→ -9	-28%	nt	1.4	0.6	28µM*
- Cc1ccc(NC(=S)c2ccncc2)cc1
→ 18	-7%	0.0%	0.8	-1.3	-5%
- CSc1nc2sc3c(c2c(=S)[nH]1)CC(C)(C)OC3
→ -7	18%[15.4 µM]	nt	0.1	3.5	9%
- Cc1cc(C)nc(NS(=O)(=O)c2ccc(NC(=O)NC3CCCCC3)cc2)n1
→ -14	17%	-0.4%	3.2	5.8	2%
- Cc1ccc(C2/C(=C(\O)c3c(C)nc4ccccn34)C(=O)C(=O)N2CCN(C)C)o1 (configuration not stated)
→ -56*	-18%[15.4 µM]	3.5%	-0.1	-12	-9%
- Cc1cc(N)n(-c2nc(-c3cccnc3)nc3ccccc23)n1
→ 1	-7%	-1.8%	0.7	2.8	-5%[15.4 µM]
- COc1ccc(NC(=O)c2ccco2)cc1NC(=O)c1ccc(OC(C)C)cc1
→ -18	nt	-2.1%	3.0	nt	nt
- COc1ccc(C2NC(=S)NC(C)=C2C(=O)Nc2ccccn2)cc1 (configuration not stated)
→ 11	?	-0.2%	0.0	0.2	11%
- Cc1ccc(Oc2nnc(-c3ccccc3)cc2C#N)cc1
→ 30	5%	-0.8%	1.4	2.3	9%
- CCCCSc1nc2ccccc2[nH]1
→ 19	-4%	nt	0.6	-2.4	9%
- N#Cc1cc(NCC2CCCO2)c([N+](=O)[O-])cc1C#N (configuration not stated)
→ -6	-1%	-1.6%	0.2	-2.0	-4%
- Cc1ccc(S(=O)(=O)c2cn(CC(=O)Nc3ccccc3)c3ccc(F)cc3c2=O)cc1
→ 5	33%	40%	1.5	6.7	7%
- COc1cc(C)ccc1NC(=O)Cc1csc(NC(=O)Nc2ccccc2OC)n1
→ 14	16%[15.4 µM]	nt	4.4	nt	-38%
- Cc1cccc(N2CCN(C(=O)C3CCCN(C(=O)c4cc5sccc5n4C)C3)CC2)c1C (configuration not stated)
→ -24	nt	1.0%	0.4	nt	nt
- CCCCCCc1cc2cc(-c3nnc(-c4ccccc4O)o3)c(=O)oc2cc1O
→ 25	-20%	0.4%	?	?	1%
- COc1ccccc1C(=O)NNC(=S)Nc1ccccc1
→ 5	2%	nt	-0.4	1.8	1%
- Cc1ccc(-c2csc3nc(C(C)C)oc(=O)c23)c(C)c1
→ -12	6%	-0.2%	1.3	14	-5%
- Cc1ccccc1CN1C(=O)CS/C1=N/N=C/c1ccco1
→ 1	29%	nt	2.3	21	-5%
- Cc1cc(F)ccc1S(=O)(=O)N1CCCOC1CNC(=O)C(=O)NCCC1=CCCCC1 (configuration not stated)
→ -12	-19%	1.3%	2.0	-0.6	1%
- O=C(Nc1ccc(NC(=O)c2ccccc2)nc1)c1ccncc1
→ 23	8%	-4.0%	0.5	-2.0	-19%
- O=C(NCc1cccnc1)c1cccc(NS(=O)(=O)c2ccc(Br)cc2)c1
→ -11	-7%[15.4 µM]	nt	-0.3	nt	18%
- COc1ccc([N+](=O)[O-])cc1NC(=O)C(C)N(C)Cc1ccc(Br)cc1 (configuration not stated)
→ -3	1%[15.4 µM]	-0.6%	-0.3	1.2	3%
- O=C(Nc1ccc2oc(=O)ccc2c1)c1ccc(-c2ccc(Cl)cc2)o1
→ 13	3%	-10%	-0.6	2.9	1%
- CCC(C(=O)NCc1ccccc1)n1ncn2c(cc3occc32)c1=O (configuration not stated)
→ -3	nt	-0.7%	-0.8	nt	nt
- CN(Cc1ccc(Cl)cc1Cl)C(=O)c1cccc(S(=O)(=O)N2CCN(c3ccccc3)CC2)c1
→ -7	8%[15.4 µM]	-11%	0.3	nt	-5%
- CCN(CCO)C(=O)c1ccc2nc(Cc3ccc(OC)cc3)oc2c1
→ 4	4%	nt	-0.8	nt	4%
- CCOC(=O)C1=C(O)/C(=C/c2ccc(OCC(=O)O)c(OCC)c2)SC1=Nc1ccc(OC)cc1
→ -17	23%[15.4 µM]	nt	1.2	3.0	-19%
- CN(C)S(=O)(=O)c1ccc(C(=O)Nc2cccc(C(=O)O)c2)cc1
→ -7	?	1.7%	-0.3	1.2	7%
- Nc1ccc(N2CCCCC2)c(S(=O)(=O)Nc2ccc(Cl)cc2)c1
→ 41	4%	1.9%	0.5	5.2	-15%
- CC(=O)c1ccc(NC(=O)c2cc(Cl)nc3ccccc23)cc1
→ 8	-13%	-5.0%	0.0	-1.9	-2%
- CC(Oc1ccc(-c2ccccc2)c(F)c1)c1ccn(S(=O)(=O)c2cccc3ccccc23)n1 (configuration not stated)
→ 5	4%[15.4 µM]	2.1%	0.4	-1.6	5%
- CC(=O)N1N=C(c2ccccc2)OC1c1cccnc1 (configuration not stated)
→ -4	21%	nt	-0.4	0.4	0%
- O=[N+]([O-])c1cccc(-c2cc3cccc[n+]3cc2-c2cccc([N+](=O)[O-])c2)c1
→ 8	?	2.5%	0.8	0.3	18%
- O=C(O)c1ccc(-n2nncc2-c2ccco2)cc1
→ -10	24%[15.4 µM]	nt	0.1	-1.7	12%
- Cc1ccc(S(=O)(=O)c2nnn3c2nc(N2CCOCC2)c2ccccc23)cc1C
→ -2	8%	?	0.7	nt	-7%
- CC(C)OC(=O)/C(=C\c1cccnc1)NC(=O)c1ccccc1
→ -17	-30%	2.4%	2.3	-1.5	7%
- Cn1nnnc1N=N/C(=N/Nc1ccccc1)c1ccccc1
→ -6	?	nt	2.3	4.7	-14%
- O=C(Cc1ccccc1)c1nc2ccccc2s1
→ 0	-10%	-0.8%	-0.5	3.5	3%
- COC(CNC(=O)CNC(=S)N(Cc1ccccc1)Cc1cccs1)OC
→ 5	20%[15.4 µM]	nt	0.1	-5.5	-18%
- N/C(=N/OC(=O)c1ccccc1F)c1nonc1N
→ 6	?	3.0%	0.6	-4.2	-3%
- CCN1CCCC1CNC(=O)Cn1nc(C)n2c(cc3cc(C)ccc32)c1=O (configuration not stated)
→ 4	-16%	nt	0.0	0.8	3%
- O=S(=O)(c1ccccc1)c1nnn2c1nc(N1CCN(c3ccccc3)CC1)c1cc(Cl)ccc12
→ -18	nt	-16%	1.4	nt	nt
- CCOc1cc(/C=C2/SC(=Nc3ccccc3)N(Cc3cccnc3)C2=O)ccc1OCC#N
→ 4	-51%[inhibitor]	-2.0%	0.0	14	-7%
- COc1cccc(CN(C(=O)Cc2c[nH]c3ccccc23)C(C(=O)NC2CCCCC2)c2cccs2)c1 (configuration not stated)
→ -13	-2%	-2.8%	0.0	3.9	10%
- COc1ccc(NC(=O)c2nnn(CC(=O)Nc3ccccc3OC)c2N)c(OC)c1
→ -5	-10%	3.9%	-0.5	-0.9	9%
- Cc1cc(C)n(Cc2ccc(C(=O)O)o2)n1
→ -20	-19%	0.0%	-0.2	0.8	-5%
- COc1ccc(-c2cc(C(F)F)n3ncc(C(=O)NCCCN4CCCC4=O)c3n2)cc1
→ -6	20%	4.2%	-0.9	0.1	-1%
- CCCCOc1ccc(S(=O)(=O)NNC(=O)c2cc3ccccc3o2)cc1
→ -1	?	-1.7%	0.5	-8.0	?
- CCOc1ccc(C(OC(=O)c2ccco2)C(=O)NCc2ccc(C)cc2)cc1 (configuration not stated)
→ -7	-2%	-2.4%	1.3	5.2	-1%
- CC1=Nc2cc(C(=O)NCc3ccc(C)cc3)ccc2Sc2ccc(Cl)cc21
→ -21	nt	-3.9%	3.3	nt	nt
- COC(=O)c1sccc1S(=O)(=O)N(CC(=O)NCc1ccc(C)cc1)c1ccc(C)cc1
→ -5	nt	1.2%	1.6	nt	nt
- Cc1ccc(CN(Cc2ccco2)C(=O)COc2ccc(C)c(C)c2)cc1
→ 22	nt	-1.7%	0.5	nt	nt

(cont.)
Values run as follows: TRPML1 blocker	gsp agonist	ClpP mod	TRPML1 ag	Menin-MLL FL inh	gsp antagonist
- Cc1cc(C)cc(NC(=O)CN2C(=O)c3ccccc3Sc3ccc(C(=O)N4CCCC4)cc32)c1
→ 24	nt	-6.7%	3.2	nt	nt
- COc1ccc(S(=O)(=O)N2CCC(C)CC2)cc1N(C)S(=O)(=O)c1ccccc1
→ 12	?	-7.4%	0.9	nt	-6%
- Cc1ccc(CCNS(=O)(=O)c2cnc[nH]2)cc1
→ -1	-19%	-1.1%	-0.3	-0.2	0%
- COc1cc(/C=N/NC(=O)C(NC(=O)c2ccccc2)c2n[nH]c(=O)c3ccccc23)ccc1OCC(N)=O (configuration not stated)
→ 17	-2%	-3.5%	0.6	-1.0	4%
- O=C(NC(=S)Nc1cccnc1Cl)c1ccc(F)cc1
→ 9	0%[15.4 µM]	nt	-0.6	0.6	-21%
- CC(C)COc1ccc(C(=O)OCCN2CCOCC2)c(O)c1
→ ?	16%	-7.6%	-0.5	0.5	3%
- CC(NC(=O)COC(=O)[C@@H]1CCCN1S(=O)(=O)c1ccccc1F)C12CC3CC(CC(C3)C1)C2 (some centres not stated)
→ 29	17%	-3.0%	2.1	10	-21%
- CC1CN(Cc2cc(=O)n3ccsc3n2)CC(C)O1 (configuration not stated)
→ 23	23%	-20%	0.6	2.8	20%
- COc1cc(Cl)c(C)cc1NC(=O)CCn1c(=O)c2cccn2c2cccnc21
→ -22	nt	6.3%	-0.7	nt	nt
- O=C(CCCC(=O)OCC1CCCO1)OCC1CCCO1 (configuration not stated)
→ -5	-2%	-2.4%	-0.1	4.3	2%

High-throughput results from PubChem.

An unsorted share of the library; any-hit rate near 2.1%.
